2A firefly: Primary qHTS Assay for Foot and Mouth Disease Virus Antivirals against NCGC Sytravon and CBC Compound Libraries: Firefly Luciferase Signal. HEK cells with a luciferase reporter of 2A StopGo recoding. Potency, µM (doses to about 57.5 µM), without a hit: top-dose signal change, negative = less light. 120,000 tested, 0.23% active. AID 1745856, 2022; active = well fitted falling curve with a large enough effect; inconclusive = small, poorly fitted or top-dose-only effect; inactive = no such curve, though single readings can be large or run the other way; further: nearly all actives have a fitted effect of over 60% in size; overnight with compound
2A Renilla: Primary qHTS Assay for Foot and Mouth Disease Virus Antivirals against NCGC Sytravon and CBC Compound Libraries: Renilla Luciferase Signal; HEK cells with a luciferase reporter of 2A StopGo recoding; Potency, µM (titrated, usually from 57.5 µM), for inactives: at the highest dose signal change, negative = less light; 120,000 tested, 0.32% active; AID 1745857, 2022; active means well fitted falling curve with a large enough effect; inconclusive means small, poorly fitted or top-dose-only effect; inactive means no such curve, though single readings can be large or run the other way; further: nearly all actives have a fitted effect of over 55% in size; overnight with compound
* = called active by the depositor; ? = inconclusive; & = joins results of further samples; [ ] = dose if it differs, or a comment. On the % scale 0 is the no-effect control and ±100 the full control effect; potency means the concentration at half of the fitted maximal effect. The list is partial, so the mix of outcomes need not match the whole.

SMILES | 2A firefly | 2A Renilla
CC(NC(=O)c1ccccc1)C1CCCO1 (centres undefined) | -3% | 7%
Cc1ccc(-c2nc3cc(NC(=O)Cc4ccc(Cl)cc4)ccc3o2)cc1 | 18% | 14%
CC(C)c1ccc(/C=C(\C#N)C(=O)NC2CC2)cc1 | 0% | 35%[activator]
Cc1ncc(-c2ccc(S(=O)(=O)Nc3ccc(Br)cc3F)cc2)o1 | 24% | 172%[activator]
C/C(=N/O)c1oc2ccccc2c1C | 39%[activator] | 6%
Cc1ccc(-c2nc3cccnc3s2)cc1NC(=O)C(C)C | 1% | -16%
COC(=O)c1ccc(NC(=O)CSc2nc3ccc(OC)cc3[nH]2)cc1 | 30% | 7%
COc1ccccc1CNc1ccc(-c2nc(-c3ccccn3)no2)cc1[N+](=O)[O-] | 134%[activator] | -7%
Cc1cc(C)c2c(-n3cccc3)nn(CC(=O)Nc3ccc(Cl)cc3)c2n1 | -8% | -6%
O=C(NCc1cccs1)c1nn(-c2ccccc2F)nc1CO | ? | ?
COc1cccc2c1cc1c(=O)n(CC(=O)N3CCN(c4ccc(F)cc4)CC3)nc(C)n12 | 1% | -8%
O=C(O)c1cc(Cl)nc(Cl)c1 | 0% | 12%
O=C1CCSc2ccc(S(=O)(=O)NCCc3cccs3)cc2N1 | 3% | 12%
Cc1ccc(C2=NN(S(C)(=O)=O)C(c3ccccc3Cl)C2)cc1 (centres undefined) | 0% | 143%[activator]
COc1ccc(Cn2c(CO)cnc2SCC(=O)Nc2ccc3c(c2)OCCO3)cc1 | 40%[activator] | -9%

Gathered by group, those above containing nitrogen in an aromatic ring (10)
SMILES | 2A firefly | 2A Renilla
Cc1ccc(-c2nc3cc(NC(=O)Cc4ccc(Cl)cc4)ccc3o2)cc1 | 18% | 14%
Cc1ncc(-c2ccc(S(=O)(=O)Nc3ccc(Br)cc3F)cc2)o1 | 24% | 172%[activator]
Cc1ccc(-c2nc3cccnc3s2)cc1NC(=O)C(C)C | 1% | -16%
COC(=O)c1ccc(NC(=O)CSc2nc3ccc(OC)cc3[nH]2)cc1 | 30% | 7%
COc1ccccc1CNc1ccc(-c2nc(-c3ccccn3)no2)cc1[N+](=O)[O-] | 134%[activator] | -7%
Cc1cc(C)c2c(-n3cccc3)nn(CC(=O)Nc3ccc(Cl)cc3)c2n1 | -8% | -6%
O=C(NCc1cccs1)c1nn(-c2ccccc2F)nc1CO | ? | ?
COc1cccc2c1cc1c(=O)n(CC(=O)N3CCN(c4ccc(F)cc4)CC3)nc(C)n12 | 1% | -8%
O=C(O)c1cc(Cl)nc(Cl)c1 | 0% | 12%
COc1ccc(Cn2c(CO)cnc2SCC(=O)Nc2ccc3c(c2)OCCO3)cc1 | 40%[activator] | -9%

(further entries)
SMILES | 2A firefly | 2A Renilla
CSc1cccc(Nc2nc(N)c(C(=O)c3ccc(F)cc3)s2)c1 | 88%[activator] | 22%
COC(=O)c1sc(=S)n(-c2ccc(C)cc2)c1N | 52%[activator] | 50%[activator]
CC(C)OCCCNC(=O)c1cc(=O)[nH]c2ccccc12 | -2% | -8%
CCc1ccc(S(=O)(=O)Nc2cc3c(C(=O)OCc4ccccc4)c(C)oc3c3ccccc23)cc1 | -5% | 19%
CCc1ccc(CNC(=O)Cn2c(-c3cccs3)cc3cc(F)ccc32)cc1 | -1% | 14%
O=C(COc1ncnc2c(Cl)cc(Cl)cc12)Nc1ccc(F)cc1 | -1% | -5%
CCOc1ccccc1N1CC(O)=C(c2nc3ccccc3s2)C1=N | 43%[activator] | 157%[activator]
CCOC(=O)c1sc(NC(=O)C(C)Oc2ccc(OC)cc2)c(C(=O)OCC)c1C (centres undefined) | 0% | -5%
CCCSCCCNC(=O)C1CCN(C(=O)c2cc3sccc3n2C)CC1 | 0% | -26%
Cc1oc2ncn(CC(C)C)c(=O)c2c1C(=O)N1CCN(c2ccc(F)cc2)CC1 | -8% | 4%
CC1(C)S[C@@H]2[C@H](NC(=O)[C@H](N)c3ccccc3)C(=O)N2[C@H]1C(=O)O | -9%[11.5 µM] | -14%
CC(=O)c1ccc(NC(=O)C2=Cc3sc4c(c3CS2)CCCC4)cc1 | 15% | 3%
Cc1ccc(-n2nc3c(=O)n(CCCC(=O)NC(C)c4ccccc4)nc(C)c3c2C)cc1 (centres undefined) | -8% | -6%
O=c1c2cnn(-c3ccc(F)cc3)c2ncn1Cc1ccccc1Cl | -16% | -6%
CCOC(=O)C1=C(C)N(c2ccc3c(c2)OCO3)C(=O)NC1c1ccc(F)cc1F (centres undefined) | 4% | 10%
Cc1cc2oc(C(=O)Nc3cccc(-c4nc5ccccc5o4)c3)c(C)c2cc1C | 0% | -20%
COc1cccc(COC(=O)c2ccc3c(c2)NC(=O)CS3)c1 | 0% | 31%[activator]
NC(N)=N/N=C/CCC1CCCCC1 | 3% | 1%
CC(=O)c1c(C(C)=O)c(C)n(-c2ccc(Br)cc2)c1C | 2% | -4%
CN(Cc1nc2ccsc2c(=O)[nH]1)C(=O)c1cnn(-c2ccccc2)c1 | 1% | -16%
Cc1cc(C)cc(OC(C)C(=O)Nc2cccc3cccnc23)c1 (centres undefined) | -15% | -19%
CCOc1ccccc1NC(=O)Cc1nn(C)c(=O)c2ccccc12 | -23% | ?
Cc1c(C(=O)NC(C)c2ccccc2)sc2nc3n(c(=O)c12)CCCC3 (centres undefined) | 35%[activator] | -5%
Cc1cc2oc(=O)cc(CN3CCCCC3C)c2cc1C(C)C (centres undefined) | 0% | 12%
CCc1ccc(-c2nc(SCC(=O)NCC3CCCO3)c(-c3ccc(C)cc3)[nH]2)cc1 (centres undefined) | -6% | -8%
Cc1cccc(S(=O)(=O)c2cn(C)c3cc(N4CCC(C)CC4)c(F)cc3c2=O)c1 | -7% | 4%
CCOc1ccccc1NS(=O)(=O)c1cc(-c2cnc(C)o2)ccc1C | ? | 6%
COc1ccc(NC(=O)c2cnc(N3CCOCC3)c3ccccc23)cc1OC | -16% | -21%
Cc1ccc(-n2ncc3c(Nc4ccc5c(c4)OCCO5)ncnc32)cc1C | 44%[activator] | 7%
O=C(NCCOCCO)C(=O)Nc1c2c(nn1-c1ccc(F)cc1)CSC2 | -21% | -10%
CC(=O)c1cc(-c2ccc(F)cc2)n(CCC(=O)NCc2ccc(C)cc2)c1C | -4% | 16%
CC1=C(C(=O)Nc2ccc(C)cc2C)C(c2cccs2)n2nc(SCc3cccc(C)c3)nc2N1 (centres undefined) | -8% | -11%
CCOC(=O)C1=C(C)NC(=O)C1(NC(=O)c1ccc(OC)c(OC)c1)C(F)(F)F (centres undefined) | 4% | 8%
CCOc1ccc(CCNC(=O)Cn2nnc(-c3ccc(OC)c(OC)c3)n2)cc1OCC | 16% | 9%
O=C(O)c1cc2c(c(S(=O)(=O)Nc3cc(Cl)ccc3F)c1)CCC2 | 7% | ?
COc1ccc(N2C(=O)CCS2(=O)=O)cc1S(=O)(=O)N(C)CCc1ccncc1 | -2% | -9%
CC(C)C(=O)N(Cc1ccccn1)C1CC1 | 0% | -4%
N#C/C(=C\c1cc(Br)c(I)o1)c1nc2ccccc2[nH]1 | 0% | -9%
Cc1oc(-c2nc(C#N)c(NC3CC3)o2)cc1S(=O)(=O)N(C)c1ccccc1 | 28% | -3%
CCOc1ccc(NC(=O)COc2ccc(C(C)C)cc2)c2cccnc12 | -4% | -21%
COc1cc(OC)c(NC(=O)N2CCC3(CC2)N=C(c2cccc(F)c2)C(=O)N3)cc1Cl | 14% | 5%
COc1ccc(C(C)=O)cc1CO/N=C/c1ccc(Cl)cc1Cl | 10% | 7%
NC(=O)C1(N)CCOCC1 | -13% | -4%
COc1ccc(C2NC(=O)NC(C)=C2C(=O)Nc2ccccc2)cc1OC (centres undefined) | 55% | 2%
Cc1ccc(C)c(Nc2ncnc3onc(C)c23)c1 | 61%[activator] | 33%[activator]
COc1ccc(C2C(C(=O)Nc3ccccc3)=C(C)Nc3nc(-c4ccccc4)nn32)c(OC)c1 (centres undefined) | -5% | -9%
Cc1cc(C)cc(OCC(C)CN2CCC(C(O)(c3ccccc3)c3ccccc3)CC2)c1 (centres undefined) | -15% | -8%
CN(Cc1cccs1)C(=O)C1CCC1 | -4% | -1%
Cc1ccc(NC(=O)NCc2c(-n3cccc3)sc3c2CCCC3)c(Cl)c1 | -2% | -15%
COC(=O)c1ccc(COC(=O)c2ccc(C(=O)OCc3ccc(C(=O)OC)o3)cc2)o1 | -5% | 7%
O=C(COC(=O)CCCc1nc2ccccc2s1)NCc1ccccc1Cl | -1% | 0%
CCCc1cc(=O)oc2cc(OCC(=O)NCCCn3ccnc3)c(Cl)cc12 | -5% | -6%
COC(=O)c1ccccc1NS(=O)(=O)c1ccc2c(c1)CCCN2C(C)=O | -5% | 185%[activator]
CN(Cc1ccc(Br)cc1)c1cc(C(=O)N2CCOCC2)c2ccccc2n1 | ? | 49%[activator]
Cn1c(=O)c2c(ncn2Cc2cccc(Br)c2)n(C)c1=O | ? | ?
CC1=CCC2C(C)(C)CCCC2(C)C1CC/C(C)=C\CC/C(C)=N/NC(N)=O (centres undefined) | -11% | -9%
COc1ccc(N2CCN(C(=O)c3cc4c(s3)-c3ccccc3OC4)CC2)cc1 | -5% | 3%
CCCN1CCC(NS(=O)(=O)c2cccc3cc(C)cnc23)CC1 | -14% | -8%
COC(=O)c1ccc(C(=O)OC)c(NC(=O)c2c(-c3ccccc3)c(-c3ccccc3)nn(C)c2=O)c1 | -13% | 4%
COc1ccc(-n2nc(C(=O)Nc3ccc(Cl)cn3)c3c4ccccc4n(C)c3c2=O)cc1Cl | -3% | -2%

4 compounds out of the list, ordered by SMILES length, smallest number first.
SMILES | 2A firefly | 2A Renilla
CN(Cc1ccc(Br)cc1)c1cc(C(=O)N2CCOCC2)c2ccccc2n1 | ? | 49%[activator]
COc1ccc(N2CCN(C(=O)c3cc4c(s3)-c3ccccc3OC4)CC2)cc1 | -5% | 3%
Cc1cc(C)cc(OCC(C)CN2CCC(C(O)(c3ccccc3)c3ccccc3)CC2)c1 (centres undefined) | -15% | -8%
COC(=O)c1ccc(COC(=O)c2ccc(C(=O)OCc3ccc(C(=O)OC)o3)cc2)o1 | -5% | 7%

(list continues)
SMILES | 2A firefly | 2A Renilla
C#CCN1CCC(C(=O)NCCN(C(C)C)C(C)C)CC1 | -9% | 5%
CNc1nc(-c2sc3ccccc3c2C)cs1 | 183%[activator] | 4%
O=C(Cc1ccccc1)NC1CC(=O)N(c2ccccc2)C1 (centres undefined) | -18% | -6%
C/C(=N/NC(N)=O)c1ccc([N+](=O)[O-])cc1 | 102%[activator] | 35%
CCc1ccc(C(CNC(=O)c2n[nH]c(=O)c3ccccc23)N(C)C)cc1 (centres undefined) | -5% | -1%
CC(C)(C)c1cc(CN2CCOCC2)c(C(=O)O)o1 | 1% | 0%
CS(=O)(=O)c1ccc2nc(NC(=O)CSCc3ccc(Cl)cc3)sc2c1 | 4% | 0%
COc1ccc(-c2nc(CS(=O)(=O)CC(=O)NCc3ccccc3Br)c(C)o2)cc1 | 20% | 54%[activator]
Cc1ccccc1Cn1nnc2sc3c(c2c1=O)CCCC3 | 7% | -4%
Cc1cn2c(=O)c(S(=O)(=O)NCCc3ccc(Cl)cc3)c(C)nc2s1 | 0% | -12%
COc1cc(OC)cc(C(=O)Nc2ccc(S(=O)(=O)Nc3cc(C)nc(C)n3)cc2)c1 | 15% | 44%[activator]
COC(=O)C1=C(c2ccccc2)c2ccccc2S(=O)(=O)N1CC(=O)Nc1ccc(F)c(F)c1 | ? | -17%&43%
CC(NC(=O)Cc1c(Cl)cccc1Cl)c1ccccn1 (centres undefined) | 3% | -6%
CC(=O)c1cnc(Nc2nc(C)c3ccc(C)cc3n2)nc1C | 9% | 5%
CCN(CC)S(=O)(=O)c1ccc2c(c1)c(=O)c(C(=O)N1CCN(c3cccc(C)c3)C(C)C1)cn2C (centres undefined) | -25% | 34%[activator]
Cc1cccc(NC(=O)CN(C)C(=O)Cc2cccc(C(F)(F)F)c2)c1C | -11% | 2%
CC(C)(C)OC(=O)N1CCC(c2c(C(=O)N3CCN(c4ccccc4F)CC3)cnn2C(C)(C)C)CC1 | 16% | -10%
COc1ccc(-c2cc(C(=O)O)c3cc(C)ccc3n2)cc1OC | -14% | ?
CC(C)OC(=O)c1ccc(NC(=O)CSc2nc(-c3cccs3)cc(C(F)(F)F)n2)cc1 | -13% | -12%
CCCCCCCCNC(=O)c1cccs1 | 31%[activator] | -4%
Cc1ccc(NC(=O)CSc2nc(=O)[nH]c3c2CCCC3)cc1 | 1% | -5%
CN(CCCNC(=O)c1cccc2[nH]ncc12)Cc1ccccc1 | 31% | 19%
CNC(=O)NC(=O)CNc1ccccc1N(C)Cc1ccccc1 | 17% | -7%
Cn1c(=O)oc2cc(S(=O)(=O)N3CCC(C(=O)NCc4ccccc4Cl)CC3)ccc21 | 7% | -3%
Cc1cc(C)cc(NC(=O)C2CCCN(c3nnc(C)c4c(C)n(-c5ccccc5)nc34)C2)c1 (centres undefined) | 11% | 28%
O=S(=O)(Nc1ccccc1Sc1nncs1)C1=Cc2ccccc2CC1 | 72%[activator] | 119%[activator]
CCc1ccccc1NC(=O)c1cc(S(=O)(=O)NCCc2ccc(OC)c(OC)c2)ccc1F | 19% | 50%[activator]
O=C(O)c1ccc(O)cn1 | 10% | -2%
C/C(=N\Nc1ccc(Br)cc1)c1ccc2c(c1)Cc1ccccc1-2 | 0% | -6%
COc1ccc(Cl)c(NC(=O)C2CC(=O)Nc3cc(-c4ccc(Cl)cc4)nn32)c1 (centres undefined) | -13% | -13%
CCCc1nc(SC)ncc1C(=O)Nc1ccc(Cl)cc1C(=O)c1ccccc1 | -11% | 0%
COc1cc2c(=O)n(Cc3ccccc3Cl)c(=O)n(CC(=O)Nc3ccc(C)c(C)c3)c2cc1OC | -11% | -12%
